Compound activity (PubChem)
D2 potentiator: Beta-Arrestin HTS for Positive Allosteric Modulators of the Human D2 Dopamine Receptor: Potentiators; AID 624464, 2012; potentiation, % (no concentration beside the values); actives 0.23% (n = 360,000); DiscoveRx D2 beta-arrestin cells, luminescence, 90 min; 100% = 57 uM dopamine signal; D(2) dopamine receptor (Homo sapiens), P14416; active = potentiation of 50% or more; inconclusive = 30% to 50%; inactive = 30% or less;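 note: compound concentration not given in the record; tested on top of an EC20 dose of dopamine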
Target sequence (P14416 whole entry, looked up): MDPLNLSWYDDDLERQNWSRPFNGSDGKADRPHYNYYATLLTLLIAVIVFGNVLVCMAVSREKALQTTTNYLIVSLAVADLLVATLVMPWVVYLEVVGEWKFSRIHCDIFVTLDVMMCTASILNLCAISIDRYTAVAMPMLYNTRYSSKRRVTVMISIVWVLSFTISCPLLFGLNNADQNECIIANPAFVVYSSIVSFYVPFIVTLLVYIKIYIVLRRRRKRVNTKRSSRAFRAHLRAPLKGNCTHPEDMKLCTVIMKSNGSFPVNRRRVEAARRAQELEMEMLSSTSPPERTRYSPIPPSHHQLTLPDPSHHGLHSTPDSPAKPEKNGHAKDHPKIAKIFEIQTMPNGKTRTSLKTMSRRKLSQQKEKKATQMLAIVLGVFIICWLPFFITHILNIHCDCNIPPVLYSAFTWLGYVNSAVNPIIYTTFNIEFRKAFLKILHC
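PathHunter D2 cells, attached overnight at 37 deg C, received compound in DMSO plus dopamine at EC20 (50 nM final) for 90 min at 37 deg C. Beta-arrestin recruitment was read as luminescence after 1 h with detection reagent at ambient temperature.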
gsp antagonist: qHTS for Antagonists of gsp, the Etiologic Mutation Responsible for Fibrous Dysplasia/McCune-Albright Syndrome: qHTS | actives 0.4% (n = 340,000) | Potency, µM (series often up to 76.9 µM), for the others: at the top dose activity change, negative = inhibition, usual class: inhibitors | gsp-mutant cells, cAMP HTRF, 30 min; control for the full effect not named in the record; active = falling curve of any shape with a large fitted effect; inconclusive = falling curve, mostly with a smaller effect; inactive = flat or rising curve; cell line not stated here;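 note: intracellular cAMP measured with PDE inhibitor Ro 20-1724 present during compound exposure; potency is the fitted concentration of half-maximal effect; % is set by controls: 0 for no effect and ±100 for the full control effect; nearly all actives have a fitted effect of over 65% in size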
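Cells in G418 medium, seeded 16-24 h, 37C; buffer exchange to DPBS + 1 mM CaCl2, 0.5 mM MgCl2, 0.05% BSA; cpds in DMSO + […] (300 uM stock), 30 min 37C; HTRF cAMP detection.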
Six1-Eya2 blk: qHTS Assay for Inhibitors of the Six1/Eya2 Interaction; actives 0.56% (n = 360,000); Homeobox protein SIX1 (Homo sapiens) + Protein phosphatase EYA2 (Homo sapiens), …; activity change, % (concentration not given with the values); AlphaScreen GST-Six1/His-Eya2 binding, biochemical; active compounds read low; control for the full effect not named in the record; in the data active = activity change below about -65%; inconclusive = about -30% to -65%; inactive = above about -30%; note: % is set by controls: 0 for no effect and ±100 for the full control effect
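GST-Six1 + His-Eya2 (5X stock: 250/500 nM); Tris pH 8.0, 300 mM NaCl, 0.05% BSA, 0.02% Tween 20; GSH donor/Ni acceptor beads; 1 h 37 °C dark; AlphaScreen readout.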
gsp agonist: qHTS for Agonist of gsp, the Etiologic Mutation Responsible for Fibrous Dysplasia/McCune-Albright Syndrome: qHTS. gsp mutant cells, cAMP HTRF, 30 min; control for the full effect not named in the record. actives 0.13% (n = 340,000). Potency, µM (highest dose often 76.9 µM), inactives show at the top dose activation (cAMP increase), usual class: activators. AID 624287, 2012; active = well fitted activation curve with a large enough effect; inconclusive = small, poorly fitted or top-dose-only effect, or another doubt; inactive = no such curve, though single readings can be large or run the other way; cell line not stated here;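 note: phosphodiesterase inhibitor Ro 20-1724 added with compounds to block cAMP breakdown; potency is the fitted concentration of half-maximal effect; nearly all actives have a fitted effect of over 60% in size; about a fifth of the inactives were tested at one dose only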
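Cells stably selected in G418 were plated at 2000/well, grown 16-24 hr, then given compounds in DMSO with the PDE inhibitor […] (300 uM solution added) for 30 min at 37C; cAMP was read by HTRF.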
CtBP-E1A inh: qHTS Assay for Inhibitors of the CtBP/E1A Interaction. AlphaScreen GST-E1A/His-CtBP binding, 1536-well; active compounds read low; control for the full effect not named in the record. activity change, % (concentration not given with the values). actives 0.49% (n = 340,000); in the data active means activity change below about -65%; inconclusive means about -30% to -65%; inactive means above about -30%; note: % is set by controls: 0 for no effect and ±100 for the full control effect
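Protein mix (5X: 125 nM each GST-E1A, His-CtBP) was incubated with pinned compound 2 h at 37 deg C in dark, in 50 mM Tris pH 8.0 buffer with 300 mM NaCl. Glutathione donor and nickel acceptor beads followed; AlphaScreen signal read after 1 h.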
D2 agonist: Beta-Arrestin HTS for Positive Allosteric Modulators of the Human D2 Dopamine Receptor: Agonists; activation, % (no concentration beside the values); actives 0.084% (n = 360,000); DiscoveRx PathHunter D2 beta-arrestin, luminescence, 90 min; 100% = 57 uM dopamine signal; D(2) dopamine receptor (Homo sapiens), P14416; AID 624465, 2012; in the data active = activation above about 40%; inconclusive = about 15% to 40%; inactive = below about 15%; note: compound concentration not given in the record; the text of the record calls up to 30% inactive
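Agonist mode: compounds alone added to overnight-plated D2 PathHunter cells for 90 min at 37 C, with 57 uM final dopamine (EC100) defining full response. Beta-arrestin recruitment detected by chemiluminescent reagent, read after 1 h at ambient temperature.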
* marks the source's active call; other numbers are inactive results; u = inconclusive; x = not tested or not shown; [ ] = dose if it differs, or a comment.

Preview, 2 compounds:
SMILES | D2 potentiator | gsp antagonist | Six1-Eya2 blk | gsp agonist | CtBP-E1A inh | D2 agonist
O=C(CCC1N=C2c3ccccc3N=C(SCC(=O)NCC3CCCO3)N2C1=O)NCc1ccc(F)cc1 (stereo not drawn) | -7 | 6% | 0 | u | x | -1.7
Cc1ccc(N2CC(C(=O)NCc3n[nH]c(=O)c4ccccc34)CC2=O)cc1 (stereo not drawn) | 4 | 3% | -2 | -4%[15.4 µM] | 5 | -2.6

All compounds of this part, from the first entry:
SMILES | D2 potentiator | gsp antagonist | Six1-Eya2 blk | gsp agonist | CtBP-E1A inh | D2 agonist
O=C(CCC1N=C2c3ccccc3N=C(SCC(=O)NCC3CCCO3)N2C1=O)NCc1ccc(F)cc1 (stereo not drawn) | -7 | 6% | 0 | u | x | -1.7
Cc1ccc(N2CC(C(=O)NCc3n[nH]c(=O)c4ccccc34)CC2=O)cc1 (stereo not drawn) | 4 | 3% | -2 | -4%[15.4 µM] | 5 | -2.6
NC1=NC2(CCCCC2)n2c(nc3ccccc32)N1 | -18 | -10% | -5 | 21% | -6 | -1.7
CCn1c(C)c(P(c2ccccc2)c2ccccc2)[n+]2ccccc12 | -11 | 6% | 0 | 7%[15.4 µM] | 0 | -0.8
C=CCN1C(=O)CSC1=Nc1ccc(O)cc1 | -8 | 7% | 4 | 24% | -18 | 1.7
O=C(Nc1cc(=O)[nH]c2ncnn12)c1ccco1 | -7 | -3% | -10 | -13% | -10 | -4.4
OC(c1ccccn1)c1c[nH]c2ccccc12 (stereo not drawn) | 14 | 0% | 4 | -2% | -8 | -4.1
COCCC(=O)N1CCC(Oc2ccc(C(=O)N3CCCC(COC)C3)cc2)CC1 (stereo not drawn) | 12 | -8% | -6 | -1%[15.4 µM] | 8 | 2.9
COC(=O)c1ccc(C2SCC(=O)N2Cc2ccccc2)cc1 (stereo not drawn) | -1 | 2% | -1 | -12% | x | -2.5
CCOc1ccc([N+](=O)[O-])c(N)c1 | -12 | 4% | 9 | -12% | -13 | -1.5
COc1ccc(-c2nc3ccc([N+](=O)[O-])cc3[nH]2)cc1 | 17 | -12% | -22 | -3% | -22 | 3.0
CC(C)NC(=S)Nc1ccc2nc3n(c(=O)c2c1)CCCCC3 | -12 | 9% | -3 | -5% | 12 | -3.3
C[C@@H]1CN([C@@H](C)CO)C(=O)c2cc(/C=C/c3ccccc3)cnc2O[C@@H]1CN(C)S(=O)(=O)c1ccc(F)cc1 | -1 | x | -3 | -33% | 7 | -4.4
COc1ccc(NC(=O)CCc2nnc3ccc(NCc4ccc5c(c4)OCO5)nn23)cc1 | -4 | -3% | -5 | -1% | x | 2.6
CCCCN(c1ccccc1)S(=O)(=O)c1cccc(C(=O)Nc2c(C)n(C)n(-c3ccccc3)c2=O)c1 | -1 | -17% | -12 | -3% | -14 | -0.6
C=CCn1c(SCc2cccnc2)nnc1-c1ccncc1 | -6 | 12% | 1 | u | 3 | -0.4
CCOC(=O)CNC(=O)c1ccc2[nH]c3ccccc3c2c1 | -9 | 2% | -3 | -13% | x | 1.1
NS(=O)(=O)c1ccc(CNC(=O)Cc2ccccc2[N+](=O)[O-])cc1 | 1 | 8% | 6 | -34%[inhibitor] | x | -1.0
O=S(=O)(c1ccc(Br)cc1F)N1CC[C@H](O)C1 | -4 | -3% | 5 | x | 4 | -4.4
Cc1cccc(C)c1N1CCN(S(=O)(=O)c2ccc(F)cc2)CC1 | 6 | -3% | 5 | 2% | 19 | -0.8
COC(=O)c1sc2ccccc2c1C(=O)OC | -6 | 2% | 1 | u | 13 | 1.0
CC(=O)NNC(=S)NCCc1ccccc1 | 0 | 6% | 4 | 15%[15.4 µM] | 4 | -7.3
CC(C)N(Cc1ccccc1)C(=O)c1ccc2nsnc2c1 | -9 | -17% | -2 | -20%[15.4 µM] | 10 | 2.6
Cc1nn(-c2ccccc2)c2c1C(=O)NC(=O)C(C)(C)C2 | 9 | 12% | 10 | 9% | -4 | -0.7
Cc1cccc(OCCSc2nc(N)cc(N)n2)c1 | -9 | 3% | -1 | 20% | 1 | -2.6
CC1CCN(c2ccccc2NC(=S)NC(=O)c2ccc(-c3cccc([N+](=O)[O-])c3)o2)CC1 | -23 | 4% | 1 | -4% | -3 | 0.0
COc1cccc(NC(=O)N(C)C[C@@H]2OCc3cnnn3CCCC(=O)N([C@@H](C)CO)C[C@H]2C)c1 | 2 | x | 2 | 2% | 1 | -3.3
CCOC(=O)Cn1c(=O)c2c(nc3n2CC(C)CN3Cc2ccccc2)n(C)c1=O (stereo not drawn) | -11 | -13% | -4 | u | -11 | -3.9
COCCNC(=O)c1ccc(N2CC3CC(C2)c2cccc(=O)n2C3)c(NC(=O)c2c(F)cccc2F)c1 (stereo not drawn) | -2 | -9% | 9 | 8% | x | -5.2
CCCC(=O)N1CCC1(C)C(=O)NS(=O)(=O)c1ccc(C)cc1 (stereo not drawn) | -2 | x | 7 | x | -15 | -4.2
CCSc1nc2ccccc2n1Cc1ccccc1F | -7 | -26% | 20 | -34%[inhibitor] | 12 | -5.8
Cc1cccc(C(=O)N2CCCC(Nc3ccc(F)c(F)c3)C2)n1 (stereo not drawn) | 2 | 15% | -3 | -87%[inhibitor] | -10 | -1.1
COc1ccc(-n2c(O)c(/C=N/n3cnnc3)c3ccccc3c2=O)cc1 | -10 | 1% | -10 | 21% | 1 | 3.6
COc1ccccc1N(O)C1CC(=O)N(c2ccc(Br)cc2)C1=O (stereo not drawn) | 20 | -7% | -10 | 11% | -9 | 4.1
O=C(Nc1ccc(Br)cc1)C1OCCc2ccccc21 (stereo not drawn) | -1 | 8% | 4 | -1%[15.4 µM] | 8 | 1.6
COc1cccc(NC(=O)COC(=O)c2c(F)cccc2Cl)c1 | -6 | -20% | 7 | 11%[15.4 µM] | 2 | -8.4
CCCCNc1nnc(SCC(=O)c2c(N)n(C3CC3)c(=O)[nH]c2=O)s1 | -3 | 6% | -2 | -1% | 2 | 1.6
O=C(CNC(=O)c1ccc(Cl)cc1Cl)OCC(=O)c1ccc2c(c1)OCCO2 | 11 | -16% | 5 | -2% | -4 | 0.3
O=C(Nc1ccccc1OCc1ccccc1)c1ccccc1Br | -1 | 5% | 0 | 7% | 16 | -4.0
CCOc1ccc2nc(NC(=O)c3c([N+](=O)[O-])cnn3CC)sc2c1 | -4 | 1% | 1 | -59%[inhibitor] | 1 | -6.6

Entries of single compounds as entered above. Order of screens: D2 potentiator | gsp antagonist | Six1-Eya2 blk | gsp agonist | CtBP-E1A inh | D2 agonist
Listed for CCSc1nc2ccccc2n1Cc1ccccc1F = -7 | -26% | 20 | -34%[inhibitor] | 12 | -5.8
Listed for CCOc1ccc2nc(NC(=O)c3c([N+](=O)[O-])cnn3CC)sc2c1 = -4 | 1% | 1 | -59%[inhibitor] | 1 | -6.6
Listed for COc1cccc(NC(=O)COC(=O)c2c(F)cccc2Cl)c1 = -6 | -20% | 7 | 11%[15.4 µM] | 2 | -8.4

(list continues)
SMILES | D2 potentiator | gsp antagonist | Six1-Eya2 blk | gsp agonist | CtBP-E1A inh | D2 agonist
CCNC(=O)CC1C(=O)N(CC)C(=S)N1NC(=O)c1cccnc1 (stereo not drawn) | -5 | 7% | -3 | 9% | 7 | 5.1
CCOc1ncccc1C(=O)Nc1ccc(-c2cn3ccsc3n2)cc1 | 2 | -4% | -2 | -13% | 6 | -2.9
O=C(CNc1cccc(S(=O)(=O)N2CCCCCC2)c1)Nc1cccc([N+](=O)[O-])c1 | -9 | u | -23 | u | x | -2.9
CCN(CC(=O)Nc1ccc(NC(C)=O)cc1)C(=O)c1c(C)nn(-c2ccc(F)cc2)c1Cl | 0 | -4% | 4 | 1% | -1 | 1.9
Cc1cccc(C(=O)NNC(=O)C2CCCCC2)c1O | -15 | x | 1 | -1% | 5 | -11
O=C(CCC(=O)Nc1ccc(F)cc1)N/N=C/c1ccccc1 | -7 | 4% | 4 | 1% | x | -0.3
Cc1cccc(C)c1OCCCN1CCCC1 | -16 | -1% | -5 | -32%[inhibitor] | 1 | 0.1
O=C(Nc1cccc(-c2cnc3ccccc3n2)c1)c1ccc(Cl)cc1 | -5 | -4% | 1 | 17% | 9 | -0.8
Cc1ccc2nc(-c3cccc(Br)c3)c(Cc3ccccc3C(F)(F)F)n2c1 | -6 | x | -6 | x | 0 | -4.2
C=CCn1cnc2c(nnn2-c2ccc(Cl)cc2)c1=O | -2 | -2% | 3 | 2%[15.4 µM] | 0 | -0.8
CCS(=O)(=O)c1nc(S(=O)(=O)c2ccc(Cl)cc2)c(N2CCOCC2)s1 | -9 | -9% | 3 | u | 5 | -0.8
CC1CN(c2ccc(Cl)cc2)c2nc3c(c(=O)[nH]c(=O)n3C)n2C1 (stereo not drawn) | -9 | 0% | 0 | -27% | -8 | -1.9
CCOC(=O)N1CCN(C(=O)COC(=O)c2oc3ccc(OC)cc3c2C)CC1 | 2 | -15% | 3 | -45%[inhibitor] | 6 | 3.0
CCOc1cccc2cc(C(=O)Nc3cc(C)on3)c(=O)oc12 | -2 | -1% | 3 | 17% | 3 | -1.4
Cc1ccc(C(C)C)c(OCC(=O)OCC(=O)NC2CC2)c1 | 1 | 2% | 7 | -10% | 7 | 1.9
CCc1ccc(C(=O)CN2C(=O)C(C)N(c3ccc(C)cc3)C2=O)cc1 (stereo not drawn) | -3 | 7% | 2 | -46%[inhibitor] | 3 | -3.3
O=C(O)CSCC(=O)Nc1cccc(C(F)(F)F)c1 | 8 | -3% | 2 | 12% | 4 | -1.5
C1=C(N2CCOCC2)/C(=C/c2nc3ccccc3[nH]2)CC1 | 17 | -13% | -19 | 3% | -19 | 1.4
COc1ccc2c(c1)CCc1sc(NC(=O)c3ccco3)nc1-2 | 4 | u | -18 | -8% | -13 | 4.6
Cc1ccc(OCc2nnc(SCC(=O)NC3CCCCC3)n2C)cc1 | -16 | -3% | 4 | u | 2 | -0.3
NC1=NC[C@H](c2ccccc2)N1CC1CCCCC1 | -6 | -1% | 15 | -20% | -11 | -5.7
COc1ccc(NC(=O)C2CC2(Cl)Cl)cc1S(=O)(=O)N1CCCCC1 (stereo not drawn) | -9 | x | -5 | -23% | 5 | 0.9
CCC(C(=O)Nc1ncccn1)(C(F)(F)F)C(F)(F)F | -17 | 7% | 4 | -1% | -1 | -3.3
Cc1ccc(C(=O)Cn2c(=N)n(N)c3ccccc32)cc1 | -5 | 1% | 6 | u | -6 | -0.3
Cc1nc2ccccc2n1CC(=O)OCC(=O)N1CCC(C)CC1 | 14 | 11% | 5 | -1% | 5 | 8.6

Compounds were not picked by outcome (roughly 1.4% active in at least one column).
